Screening results from PubChem BioAssay.
VDR inh – Inhibitors of the vitamin D receptor (VDR): qHTS; Vitamin D3 receptor (Homo sapiens), P11473; VDR-SRC2-3 peptide fluorescence polarization, 2 h; Potency, µM, for inactives: max response, negative = inhibition, usual class: inhibitors; 400,000 compounds, 0.93% hits; AID 504847, 2011; active = well fitted inhibition curve with a large enough effect; inconclusive = small, poorly fitted or top-dose-only effect, or another doubt; inactive = no such curve, though single readings can be large or run the other way; note: series mostly up to about 120 µM
Target sequence (P11473 whole entry, looked up): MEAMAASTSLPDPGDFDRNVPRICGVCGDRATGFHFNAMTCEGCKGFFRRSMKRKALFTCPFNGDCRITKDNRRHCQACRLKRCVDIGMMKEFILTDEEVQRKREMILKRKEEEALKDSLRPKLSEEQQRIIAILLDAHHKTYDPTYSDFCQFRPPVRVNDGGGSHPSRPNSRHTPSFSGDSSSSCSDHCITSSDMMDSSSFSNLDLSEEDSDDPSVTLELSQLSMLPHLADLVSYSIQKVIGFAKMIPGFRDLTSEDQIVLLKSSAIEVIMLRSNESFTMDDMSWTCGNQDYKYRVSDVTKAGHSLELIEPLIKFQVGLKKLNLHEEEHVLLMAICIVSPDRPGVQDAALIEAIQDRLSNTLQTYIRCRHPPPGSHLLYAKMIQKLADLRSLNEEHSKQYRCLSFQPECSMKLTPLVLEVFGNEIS
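The screen uses fluorescence polarization to detect compounds that interfere with recruitment of the SRC2-3 coactivator peptide to VDR; plates are read after 2 h at room temperature.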
Starred values were filed as active, the others as inactive; ? = inconclusive; & = joins results of further samples. % is set by controls: 0 for no effect and ±100 for the full control effect; potency is the fitted concentration of half-maximal effect. These rows are one share of the data; count on the stated rates, not on these rows.

SMILES | VDR inh
CCc1cccc(NC(=O)Cn2c(=O)n(Cc3ccccc3)c(=O)c3c(C)c(C(=O)N(C)C)sc32)c1 | 4.0%
COc1cccc(NC(=O)c2cc(Cl)nnc2Cl)c1 | -15.6%
COCCN(CCOC)Cc1c(O)ccc2c3c(c(=O)oc12)CCC3 | -0.3%
CCOC(=O)N1CCC(N2CCCC(C(=O)c3ccccc3OC)C2)CC1 (configuration not stated) | -11.3%
O=C(Cc1ccccc1)NNC1=NS(=O)(=O)c2ccccc21 | 10.9%
CCCCOc1ccc(S(=O)(=O)N2CCCCCC2)cc1 | -8.4%
O=c1oc2c(CN3CCOCC3)c(O)ccc2cc1-c1ccc(Cl)cc1 | 11.2%
CCCCc1ccccc1NC(=S)NC1CCCC1 | 2.1%
COC(=O)c1cccc(N2C(=O)C3CC=CCC3C2=O)c1 (configuration not stated) | 4.3%
CC(=O)c1cc(CC(=O)N2CCc3c([nH]c4ccccc34)C2c2ccccn2)cs1 (configuration not stated) | 5.4%
CCOc1ccccc1C=NNC(=O)C1CC1 | 10.7%
CCOC(=O)c1[nH]c(C)c(/C(O)=C2\C(=O)C(=O)N(CCCn3ccnc3)C2c2ccncc2)c1C (configuration not stated) | -2.7%

A run of entries of the results above, for reference:
SMILES | VDR inh
O=c1oc2c(CN3CCOCC3)c(O)ccc2cc1-c1ccc(Cl)cc1 | 11.2%
CCCCc1ccccc1NC(=S)NC1CCCC1 | 2.1%
COC(=O)c1cccc(N2C(=O)C3CC=CCC3C2=O)c1 (configuration not stated) | 4.3%
CC(=O)c1cc(CC(=O)N2CCc3c([nH]c4ccccc34)C2c2ccccn2)cs1 (configuration not stated) | 5.4%
CCOc1ccccc1C=NNC(=O)C1CC1 | 10.7%
CCOC(=O)c1[nH]c(C)c(/C(O)=C2\C(=O)C(=O)N(CCCn3ccnc3)C2c2ccncc2)c1C (configuration not stated) | -2.7%

Further records follow.
SMILES | VDR inh
CCOC(=O)c1c(C)[nH]c(C)c1S(=O)(=O)N1CCC(C(=O)Nc2ccc(OCC)cc2)CC1 | 10.2%
COC(=O)C1=C(C(=O)OC)[C@@H]2N(C)c3ccccc3[C@@]23C[C@@H](C(=O)OC)N(C(=O)c2ccc(Br)cc2)C3=N1 | -10.9%
O=C(NCC(=O)N1CCCC1)c1ccc(Br)cc1 | -0.6%
Cc1c(CC(=O)NC(C)C)c(=O)oc2cc3c(cc12)CCC(C)(C)O3 | -7.2%
O=C(NC1CC(=O)N(c2ccc(Cl)cc2)C1)c1ccc(S(=O)(=O)N2CCOCC2)cc1 (configuration not stated) | 5.6%
CCCCOc1ccc(CSC(CC(=O)O)C(=O)O)cc1 (configuration not stated) | -1.2%
NNC(=O)c1ccc(COc2ccc([N+](=O)[O-])cc2)o1 | -5.4%
Cc1cccc(NC(=O)N2CCC(NC(=O)c3ccco3)CC2)c1 | -7.0%
Nc1ccc(N2CCN(C(=O)c3cccs3)CC2)cc1 | ?
CCOC(=O)c1c(C)oc2nc(C)nc(NCC3CCN(Cc4ccc(F)cc4)CC3)c12 | 2.3%
CCc1nnc(NC(=O)CN2CCN(c3ccccc3F)CC2)s1 | -12.2%
Cc1nc2nc(C)c(CCC(=O)NCc3cccc(Cl)c3)c(C)n2n1 | -6.6%
COC(=O)c1ccc(C(=O)OC)c(NC(=S)N2CC(C)CC(C)C2)c1 (configuration not stated) | 10.3%
Cc1c(NC(=O)COc2ccccc2Cl)c(=O)n(-c2ccccc2)n1C | -22.2%
CCN(CC)CCN(C(=O)c1cccc([N+](=O)[O-])c1)c1nc2ccc(OC)cc2s1 | -10.6%
CN(C)c1ccc(NC(=O)CSc2nnc(C3CCCCC3)n2N)cc1 | -16.9%
CN(Cc1ccon1)C(=O)C1CCC(=O)N(Cc2ccc(Cl)cc2)C1 (configuration not stated) | -20.3%
Cc1ccc(S(=O)(=O)CCC(=O)OCC(=O)c2c[nH]c3ccccc23)cc1 | 12.5%
CC(Cc1c[nH]c2ccccc12)C(=O)N1CCN(c2ccccc2F)CC1 (configuration not stated) | 13.4%
COc1ccc(S(=O)(=O)NC(C)C)cc1C(=O)N1CCOCC1 | -1.5%
COC(=O)c1ccc(C(=O)Nc2ccc(F)cc2)cc1 | -24.8%
CCCCNC(=O)C1CCN(Cc2ccc(OCc3ccccc3)c(OC)c2)CC1 | -1.8%
CCOc1ccc(OCCCN(C)C)cc1 | 14.9%
CC(C)=CCN1CCN(Cc2coc3ccc(C)cc3c2=O)CC1CCO (configuration not stated) | -12.0%

Next section (five carried over from the part before).
SMILES | VDR inh
COc1ccc(S(=O)(=O)NC(C)C)cc1C(=O)N1CCOCC1 | -1.5%
COC(=O)c1ccc(C(=O)Nc2ccc(F)cc2)cc1 | -24.8%
CCCCNC(=O)C1CCN(Cc2ccc(OCc3ccccc3)c(OC)c2)CC1 | -1.8%
CCOc1ccc(OCCCN(C)C)cc1 | 14.9%
CC(C)=CCN1CCN(Cc2coc3ccc(C)cc3c2=O)CC1CCO (configuration not stated) | -12.0%
COc1ccc(NC(=O)CC2C(=O)NC3CCCCC3N2C(=O)c2ccc(F)cc2)cc1 (configuration not stated) | 4.4%
CCCCOc1ccc(CSC(=N)N)cc1[N+](=O)[O-] | 13.5%
CCc1ccccc1N1CC(c2nc3ccccc3n2CCCCOc2ccccc2OC)CC1=O (configuration not stated) | 15.3%
CCCn1c(-c2nonc2N)nc2ccccc21 | -6.8%
CCN(CC)C(=S)SCC(=O)Nc1nc(-c2ccccc2)c(-c2ccccc2)o1 | -4.8%
Cc1c(C(=O)NCCC2=CCCCC2)cccc1[N+](=O)[O-] | 21.8%
Cc1cccc(N2C(=O)CCC2=O)c1 | -12.8%
Cc1c(OCC(=O)NCCCN2CCCC2=O)ccc2c3c(c(=O)oc12)CCCC3 | 0.9%
Cc1ccc(NC2=C(Cl)C(=O)OC2OC(=O)c2ccc(C)cc2)cc1 (configuration not stated) | 7.6%
CCOC(=O)C1=C(CC)OC(N)=C(C#N)C1c1ccsc1 (configuration not stated) | 8.0%
O=C(NCc1cnn(-c2ccccc2)c1)C1CCC(=O)N(C2CC2)C1 (configuration not stated) | -1.0%
CC(=O)c1ccc(NC(=O)CSC2=NS(=O)(=O)c3cc(Cl)ccc3N2)cc1 | -28.1%
CC(C)NC(=O)c1nc2ccccc2s1 | 3.4%
CCOP(=O)(OCC)C1NC(=O)N(c2ccccc2)C1=O (configuration not stated) | 14.3%
CCNC(=S)Nn1cnc2ccccc21 | 3.1%
COc1cc(/C=N/NC(=O)CSCc2ccc([N+](=O)[O-])cc2)cc(OC)c1OC | -16.2%
COc1ccc(Cl)cc1NC(=O)c1cc(-c2ccc3c(c2)OCO3)on1 | -6.7%
O=C(Nc1cc(Cl)ccc1Oc1ccccc1)C1=COCCO1 | -5.7%
COc1ccc(O)c(/C=N/Nc2nc(C)cc(-c3ccccc3)n2)c1 | -2.0%
O=C(N/C(=C/c1ccc([N+](=O)[O-])cc1)C(=O)N1CCCC1)c1ccccc1 | 7.2%
Brc1ccc(/C=N/Nc2nc3ccccc3o2)cc1 | 2.8%
Nc1nonc1-n1nnc(C(=O)N/N=C/c2ccncc2)c1CSc1ccc(Cl)cc1 | -2.9%
CCC(=O)c1ccc(OCC(=O)NCC2COc3ccccc3O2)cc1 (configuration not stated) | -18.9%
CC(C(=O)OCC(=O)N1CCCCC1)N1C(=O)c2ccccc2C1=O (configuration not stated) | 11.2%
Cc1c(C(=O)OCC(=O)NCc2ccco2)oc2ccccc12 | -21.5%
COc1ccccc1N(C)S(=O)(=O)c1ccc(C(=O)OCC(=O)N(C)c2ccccc2)cc1 | 21.4%
Cc1ccc(NC(=O)CCC(=O)OCC(=O)c2ccc(Oc3ccc([N+](=O)[O-])cc3)cc2)cc1C | 17.0%
COC(=O)c1ccccc1NC(=O)c1ccc(COc2cc(C)cc(C)c2)o1 | 4.5%&7.8%
COc1ccccc1OCCCCN1CCCCC1 | -8.0%
CC(C)(C)NCCOc1ccc2ccccc2c1 | -7.8%
FC(F)(F)c1ccccc1-c1nccc(N2CCNCC2)n1 | -12.9%
Cc1cc(C)nc(NS(=O)(=O)c2ccc(NC(=O)c3cc4c(=O)n5cccc(C)c5nc4n3C)cc2)n1 | 18.3%
Cc1ccc(NC(N)=S)cc1C | -5.0%
O=C(COc1ncnc2sccc12)Nc1cccc(S(=O)(=O)N2CCCC2)c1 | -12.2%
CC1=NN(c2ccccc2)C(=O)/C1=C/c1cccs1 | 79.4µM*
C=CCn1c(-c2csc3c2CCC(C)C3)n[nH]c1=S (configuration not stated) | -10.4%
CCN(CC)CCNC(=O)C1CCN(C(=O)c2cnn(-c3ccccc3)c2-n2cccc2)CC1 | 0.7%
Cn1c(=O)n(C)c2cc(/C=N/NC(=O)c3ccc(Cl)cc3Cl)ccc21 | 5.9%
CCOC(=O)Cc1csc(NC(=O)/C=C\c2ccccc2Cl)n1 | -7.9%
Cc1sc2nc(C(C)C)nc(SCC(=O)N3CCOCC3)c2c1C | -2.3%
CCOc1cc(CNc2ccc(S(N)(=O)=O)cc2)cc(Cl)c1OC | 16.3%
COc1ccc(C(=O)Nc2nnc(S(=O)(=O)N(C)c3ccc(C)cc3)s2)cc1 | -1.9%
CC(C)(C)n1nnnc1C(c1cccs1)N1CCCc2ccccc21 (configuration not stated) | 1.7%
CCN(C(=O)c1ccc2c(=O)n3c(nc2c1)CCCCC3)c1ccccc1C | -13.4%
CCOC(=O)c1sc2nc(CC(=O)OC)nc(NCC(=O)OC)c2c1C | -2.2%
CCOC(=O)c1nn(-c2ccccc2)c(=O)cc1OCC(=O)Nc1cc(C)ccc1OC | -14.7%
COc1ccc(/C=C/C(=O)Nc2ccc3nc(N4CCC(C)CC4)cc(C)c3c2)cc1OC | -18.9%
CCOCCCNC(=O)c1ccccc1SC | -17.9%
CC(C)c1cc(NCCCN2CCOCC2)n2c(nc3ccccc32)c1C#N | 8.6%
CC(C)(C)CC(=O)NCCCCCCNC(=O)CC(C)(C)C | -9.0%
COc1ccc(-c2ccc(C(C)=O)cc2)cc1C1C2C=CCCC2(C)C(=O)N1Cc1ccccc1 (configuration not stated) | -11.2%
CCOc1ccc(CCNC(=O)CN2CCN(Cc3ccccc3C)C2=O)cc1OCC | 13.8%
COc1cc(-c2cc(C(=O)N3CCCCCC3)c3ccccc3n2)cc(OC)c1OC | -7.5%
Cc1cccc(Nc2nnc(-c3ccc(C)c(S(=O)(=O)N4CCCCC4)c3)c3ccccc23)c1 | -17.6%
CC(C)(C)NS(=O)(=O)c1cnc(Cl)c(Cl)c1 | -2.6%
CCOC(=O)C1=C(N)Oc2cc(C)oc(=O)c2C1c1cccnc1 (configuration not stated) | 13.7%
COc1cc(S(=O)(=O)N(Cc2ccc(C)cc2)C2CCCCC2)ccc1-n1cnnn1 | 0.9%
CCCCN(C)S(=O)(=O)c1ccc(C(=O)Nc2nnc(-c3ccco3)o2)cc1 | -13.8%
O=C(CS(=O)(=O)c1cccc2nsnc12)Nc1cc(F)ccc1F | 20.4%
CN(C(=O)COC(=O)c1cc2ccccc2cc1O)c1ccccc1 | -21.0%

(next part)
SMILES | VDR inh
CC(=O)OC1CC(OC(C)=O)[C@]2(C)C(CC(=O)[C@]3(C)C2CC[C@@]2(C)C(C(=O)O)OC(=O)C4OC423)C1(C)C (some centres not stated) | 0.1%
CNc1nc(SCC(=O)Nc2ccc(Cl)c(Cl)c2)nc(N2CCOCC2)n1 | -9.6%
CCOc1ccc(OCc2ccc(C(=O)N3CCc4ccccc4C3)o2)cc1 | 6.3%
O=C1c2ccccc2C2=Nc3ccccc3SC(c3ccc(Cl)cc3)C12 (configuration not stated) | -3.0%
CC(=O)c1cccc(NC(=O)/C=C/c2ccc(S(=O)(=O)N3CCOCC3)cc2)c1 | 12.5%
Fc1ccc(CSc2ncnc3nc[nH]c23)cc1 | -3.8%
O=C1CN(C(=O)c2ccc(S(=O)(=O)N3CCCC3)cc2)C(c2ccccc2)c2cc(Cl)ccc2N1 (configuration not stated) | -15.4%
Cc1cc2occ(CC(=O)OCC(=O)Nc3sc4c(c3C#N)CCC(C)C4)c2cc1C (configuration not stated) | 2.4%
Cc1ccc(NC(=O)CSc2ccc(-c3ccco3)nn2)c(C)c1 | 0.0%
CC(=O)c1cccc(NC(=O)NN2CCN(C)CC2)c1 | 13.3%
Cc1ccccc1CNC(=O)Cn1c(=O)c2cccn2c2cccnc21 | 1.9%
Cc1c(Cl)cccc1NC(=S)NCC(c1cccnc1)N(C)C (configuration not stated) | -8.4%
O=C(CN1C(=O)C(=O)N(C2CCCC2)C1=O)Nc1ccc([N+](=O)[O-])cc1 | -24.4%
Cc1ccc(NS(=O)(=O)c2cccc3cccnc23)c(Cl)c1 | 10.0%
COc1ccc(N(CC(=O)N/N=C(\C)c2ccccc2)S(=O)(=O)c2ccccc2)cc1 | -2.4%
C/C(=C/c1oc2ccc(O)cc2c1[N+](=O)[O-])N(C)C | 1.0%
C[C@H](CO)N1C[C@H](C)[C@@H](CN(C)C(=O)Nc2ccc(C(F)(F)F)cc2)Oc2ccc(NC(=O)Cc3ccccc3)cc2C1=O | 11.3%
Cc1ccc(NC(=O)c2oc3ccc(S(=O)(=O)N4CCCCC4)cc3c2C)cc1Cl | 12.0%
CC(=O)c1c(C)[nH]c(C(=O)NC2CCSc3ccccc32)c1C (configuration not stated) | 24.3%
CCN1CCN(c2cc(C)c3cc(NC(=O)c4cc(OC)c(OC)c(OC)c4)ccc3n2)CC1 | -2.1%
CCCn1nc(NC(=O)C2CCCO2)c2cc3cc(C)ccc3nc21 (configuration not stated) | ?
Cc1ccc(-c2nc3c4ccccc4n(CC(=O)N4CCN(c5ccc(F)cc5)CC4)c(=O)n3n2)cc1 | 3.4%
COc1cccc(OC)c1C(=O)NC(=S)Nc1ccc2oc(-c3ccncc3)nc2c1 | 16.3%
O=C1/C(=C/c2cccs2)NC(=S)N1C1CC1 | -17.9%
COc1cc(NC(=O)CSc2ccc(-c3cccnc3)nn2)cc(OC)c1 | -15.4%
